Assay outcomes as filed in PubChem.
D2 PAM – Beta-Arrestin HTS for Positive Allosteric Modulators of the Human D2 Dopamine Receptor: Potentiators; D(2) dopamine receptor (Homo sapiens), P14416; DiscoveRx D2 beta-arrestin cells, luminescence, 90 min; 100% = 57 uM dopamine signal; potentiation, % (no concentration beside the values); 360,000 tested, 0.23% active; active = potentiation of 50% or more; inconclusive = 30% to 50%; inactive = 30% or less;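 also: compound concentration not given in the record; tested on top of an EC20 dose of dopamine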
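PathHunter D2 cells, attached overnight at 37 deg C, received compound in DMSO plus dopamine at EC20 (50 nM final) for 90 min at 37 deg C. Beta-arrestin recruitment was read as luminescence after 1 h with detection reagent at ambient temperature.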
CtBP-E1A inh – qHTS Assay for Inhibitors of the CtBP/E1A Interaction. CtBP / adenovirus E1A interaction (AlphaScreen). AlphaScreen GST-E1A/His-CtBP binding, 1536-well; active compounds read low; control for the full effect not named in the record. activity change, % (concentration not given with the values). 340,000 tested, 0.49% active. AID 651724, 2012; in the data active means activity change below about -65%; inconclusive means about -30% to -65%; inactive means above about -30%; also: % is scaled to controls: 0 for no effect and ±100 for the full control effect
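Homogeneous bead-based format: GST-tagged E1A captured on glutathione donor beads, His-tagged CtBP on nickel acceptor beads; compounds precede bead addition by 2 h at 37 °C.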
TRPV1 PAM – HTS Assay for Compounds that Act as Potentiators of the Vanilloid Receptor 1; Transient receptor potential cation channel subfamily V member 1 (Homo sapiens), Q8NER1; TRPV1-expressing cells, Fluo-8 calcium influx, capsaicin EC20 potentiation; host cell line not named in the record; control for the full effect not named in the record; potentiation, % at 8.33 µM; 320,000 tested, 0.02% active; AID 540277, 2011; active means potentiation above 80%; inconclusive means 30% to 80%; inactive means below 30%; also: 0% is about no effect
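Fluo-8 calcium influx in TRPV1-expressing cells, kinetic read (ex 480/em 520 nm). Compound added and read 3 min for agonist activity, followed by capsaicin at EC20 final and 2 min further read for enhancement.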
PINK1 modulator – A Quantitative High throughput Screen to Identify Chemical Modulators of PINK1 Expression. PINK1 immunofluorescence, high-content cytometry, 24 h. 410,000 tested, 0.2% active. Potency, µM (doses to about 76.6 µM), without a hit: at the highest dose activation (PINK1 increase), hits mostly activators; active = well fitted activation curve with a large enough effect; inconclusive = small, poorly fitted or top-dose-only effect; inactive = flat fitted curve, though single readings scatter; cell line not stated here;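 also: potency is read from the fitted curve at half-maximal effect; % of control where 0% means no effect; nearly all actives have a fitted effect of over 65% in size; a mitochondrial uncoupler was the plate control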
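Readout is PINK1 immunofluorescence, quantified alongside mitochondrial, cell and nuclear markers by laser-scanning microplate cytometry. Cells from a stable line were exposed to compound titrations (5 concentrations) for 24 hours, with CCCP controls.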
Six1-Eya2 inh – qHTS Assay for Inhibitors of the Six1/Eya2 Interaction | Homeobox protein SIX1 (Homo sapiens) + Protein phosphatase EYA2 (Homo sapiens), … | AlphaScreen GST-Six1/His-Eya2 binding, biochemical; active compounds read low; control for the full effect not named in the record | activity change, % (concentration not given with the values) | 360,000 tested, 0.56% active | AID 651725, 2012; in the data active = activity change below about -65%; inconclusive = about -30% to -65%; inactive = above about -30%; also: % is scaled to controls: 0 for no effect and ±100 for the full control effect
Target sequence (O00167 whole entry, looked up): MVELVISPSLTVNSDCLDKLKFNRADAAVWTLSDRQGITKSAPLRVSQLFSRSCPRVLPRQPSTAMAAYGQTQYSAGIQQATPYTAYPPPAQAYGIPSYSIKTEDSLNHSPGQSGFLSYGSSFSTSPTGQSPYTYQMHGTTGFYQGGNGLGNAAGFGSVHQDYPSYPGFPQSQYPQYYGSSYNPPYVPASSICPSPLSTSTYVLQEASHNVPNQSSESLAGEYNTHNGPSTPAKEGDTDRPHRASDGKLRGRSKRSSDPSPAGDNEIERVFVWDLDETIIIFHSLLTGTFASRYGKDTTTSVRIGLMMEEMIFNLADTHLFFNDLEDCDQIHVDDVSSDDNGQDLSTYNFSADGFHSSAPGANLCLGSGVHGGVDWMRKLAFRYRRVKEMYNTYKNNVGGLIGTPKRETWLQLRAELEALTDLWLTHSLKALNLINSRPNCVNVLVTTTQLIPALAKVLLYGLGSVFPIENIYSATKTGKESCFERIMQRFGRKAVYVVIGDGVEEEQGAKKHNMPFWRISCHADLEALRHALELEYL
Target sequence (Q15475 whole entry, looked up): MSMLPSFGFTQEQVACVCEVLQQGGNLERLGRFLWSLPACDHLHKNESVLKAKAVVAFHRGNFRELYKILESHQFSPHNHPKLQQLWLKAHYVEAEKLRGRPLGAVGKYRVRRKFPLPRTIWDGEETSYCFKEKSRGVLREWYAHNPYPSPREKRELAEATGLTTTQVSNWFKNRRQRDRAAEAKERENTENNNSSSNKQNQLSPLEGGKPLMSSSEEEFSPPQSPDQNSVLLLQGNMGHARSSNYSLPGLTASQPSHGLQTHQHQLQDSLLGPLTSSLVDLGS
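Homogeneous AlphaScreen proximity assay pairing GST-Six1 with His-tagged Eya2 (added as 5X mix: 250 nM and 500 nM) in 50 mM Tris pH 8.0, 300 mM NaCl, 1 mM TCEP. Glutathione donor and nickel acceptor beads; 1 h, 37 °C, dark.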
Sfp inh – qHTS Assay for Inhibitors of Bacillus subtilis Sfp phosphopantetheinyl transferase (PPTase); Potency, µM, for the others: max response, negative = inhibition, hits mostly inhibitors; AID 1490, 2009; 4'-phosphopantetheinyl transferase ffp (Bacillus subtilis), Q9F4F7; 310,000 tested, 3.5% active; Biochemical Sfp PPTase activity, qHTS; active = well fitted inhibition curve with a large enough effect; inconclusive = small, poorly fitted or top-dose-only effect, or another doubt; inactive = no such curve, though single readings can be large or run the other way;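 also: the enzyme is Sfp with the accession as filed and its product quenches rhodamine fluorescence; potency is read from the fitted curve at half-maximal effect; 0% = enzyme reaction without inhibitor and -100% = no enzyme wells; top concentration of the series not given in the record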
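Reaction rates are the 30-min fluorescence difference (ex 525, em 598 nm) in wells containing 15 nM Sfp, 5 uM rhodamine-CoA and 12.5 uM BHQ-2-YbbR at pH 7.6 with 10 mM MgCl2.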
D2 agonist – Beta-Arrestin HTS for Positive Allosteric Modulators of the Human D2 Dopamine Receptor: Agonists. D(2) dopamine receptor (Homo sapiens), P14416. DiscoveRx PathHunter D2 beta-arrestin, luminescence, 90 min; 100% = 57 uM dopamine signal. activation, % (concentration not given with the values). 360,000 tested, 0.084% active. AID 624465, 2012; in the data active = activation above about 40%; inconclusive = about 15% to 40%; inactive = below about 15%; also: compound concentration not given in the record; the text of the record calls up to 30% inactive
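Agonist mode: compounds alone added to overnight-plated D2 PathHunter cells for 90 min at 37 C, with 57 uM final dopamine (EC100) defining full response. Beta-arrestin recruitment detected by chemiluminescent reagent, read after 1 h at ambient temperature.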
Numbers without * were called inactive; ? = inconclusive; . = no result given; [ ] = another dose, or the depositor's remark.

1) CS(=O)(=O)c1ccccc1-c1nc(-c2ccc([N+](=O)[O-])cc2)no1
2) CCOc1ccc(N2C(=O)C3=C(C(c4ccc(Cl)cc4)=NCCN3)C2c2cccnc2)cc1 (centres undefined)
3) NNc1nc(C(F)(F)F)nc2ccccc12
4) CC1(C(=O)NS(=O)(=O)c2ccc(C#N)cc2)CCN1C(=O)Cc1ccc(Cl)cc1Cl (centres undefined)
5) N#CC(c1ccc(F)cc1)c1ccc(C(=O)c2ccccc2)cc1 (centres undefined)
6) O=C(N/N=C/c1ccc(Sc2nc3ccccc3[nH]2)o1)c1ccncc1

assay / entry	1	2	3	4	5	6
D2 PAM	10	6	-2	-13	-8	-6
CtBP-E1A inh	5	1	0	-1	17	-5
TRPV1 PAM	?	20	5	.	-11	0
PINK1 modulator	-1.6%	3.5%	0.5%	-1.1%	1.3%	-1.1%
Six1-Eya2 inh	6	2	-2	11	42	-12
Sfp inh	-13%	2%	50µM*	.	?	-5%
D2 agonist	12	0.2	-1.9	-1.8	-2.1	-0.2

7) COc1cccc(OCCCCCCN2CCOCC2)c1
8) Cc1ccc(Nc2nc3ccccc3nc2Nc2c(C)n(C)n(-c3ccccc3)c2=O)cc1
9) O=C(O)Cn1nnc(COc2ccccc2)n1
10) Cc1ccc(C(=O)NC2CCC(C)CC2)s1 (centres undefined)
11) Cc1ccc(-c2nnnn2-c2ccc(C)cc2)cc1
12) C=CCOc1ccc2c3c(c(=O)oc2c1)CCCC3

assay / entry	7	8	9	10	11	12
D2 PAM	-1	-4	-4	-18	4	-2
CtBP-E1A inh	15	6	3	1	16	-5
TRPV1 PAM	3	-4	-10	-1	-7	.
PINK1 modulator	-1.1%	2.4%	0.2%	-0.3%	-1.3%	-0.7%
Six1-Eya2 inh	26	-5	11	4	4	2
Sfp inh	17%	-1%	13%	.	8%	.
D2 agonist	-1.2	-2.3	-5.2	2.2	5.2	2.7

13) O=C(/C=C/c1ccc([N+](=O)[O-])s1)N1CCCCC1
14) O=C1S/C(=C/c2ccc(N3CCOCC3)o2)C(=O)N1Cc1ccc(F)cc1
15) COc1ccc2c(c1OC)C(=O)N1c3ccccc3C(=O)N(c3ccccc3F)C21 (centres undefined)
16) Cc1ccc(OCCN(C)C(=O)C2CCC(=O)N(CCCN3CCOCC3)C2)cc1 (centres undefined)
17) O=[N+]([O-])c1cccc(Nc2c3ccccc3nc3ccccc23)c1
18) COc1cc(-c2[nH]ncc2CN2CCN(c3cccc(C)n3)CC2)cc(OC)c1OC

assay / entry	13	14	15	16	17	18
D2 PAM	-2	2	-29	-8	-10	-26
CtBP-E1A inh	-6	-6	-11	0	-9	-11
TRPV1 PAM	-38	-8	-4	-10	-5	-5
PINK1 modulator	?	24%	-0.7%	-1.4%	0.8%	-0.4%
Six1-Eya2 inh	-8	7	-12	-10	-5	-1
Sfp inh	8%	3.5µM*	1%	10%	8%	18%
D2 agonist	-0.5	-1.7	-5.2	-3.4	4.7	4.3

19) N#C/C(=C\c1cn(Cc2ccccc2)c2ccccc12)C(=O)NCc1ccco1
20) CCOc1ccccc1C(=O)NCC(=O)NCc1ccc(S(=O)(=O)N2CCOCC2)cc1
21) O=C(Nc1ccc(-c2csc(Nc3cccc(C(F)(F)F)c3)n2)cc1)c1cc([N+](=O)[O-])cc(C(F)(F)F)c1
22) COc1ccc(CCn2c(N)c(S(=O)(=O)c3cccs3)c3nc4ccccc4nc32)cc1OC
23) COc1ccc2c(c1)c(=O)c(C(=O)c1ccccc1)cn2Cc1ccc(C)cc1
24) COc1ccc(-n2c(C)c(C)c3c(NCCCO)ncnc32)cc1

assay / entry	19	20	21	22	23	24
D2 PAM	-10	-4	?	-20	-5	-2
CtBP-E1A inh	7	.	0	8	-1	0
TRPV1 PAM	-7	-6	12	7	6	-2
PINK1 modulator	?	-0.4%	20%	2.9%[38.3 µM]	0.9%	0.4%
Six1-Eya2 inh	14	-5	-1	-67*	0	-5
Sfp inh	14%	.	25%	10%	10%	0%
D2 agonist	-4.5	-2.0	2.0	-0.1	-0.6	-0.2

25) COc1cc(OC)cc(C(=O)NCC(=O)N2CCN(Cc3ccccc3)CC2)c1
26) Cc1cc(Cl)ccc1OCc1nnc2n1CCCCC2
27) Cc1ccc(-c2[nH]c(-c3ccc(C(=O)O)cc3)nc2-c2ccccc2)cc1
28) Cc1cc(-c2nnc3n2CCCCC3)c(C)n1-c1ccccc1
29) COc1ccc(Cl)cc1NC(=O)COC(=O)CNC(=O)c1ccc([N+](=O)[O-])c(C)c1
30) COc1ccc(OC)c(-c2csc(-c3cccs3)n2)c1

assay / entry	25	26	27	28	29	30
D2 PAM	-5	7	-17	-5	-18	-4
CtBP-E1A inh	6	0	18	0	-7	16
TRPV1 PAM	.	-2	6	13	0	-20
PINK1 modulator	0.2%	-1.6%	1.2%	0.8%	2.0%	13%
Six1-Eya2 inh	-1	7	-20	-6	-7	6
Sfp inh	.	20%	-2%	1%	19%	-22%
D2 agonist	-2.8	4.3	0.1	-2.4	-1.7	-4.9

A draw from above in order of molecular weight, descending:
2) CCOc1ccc(N2C(=O)C3=C(C(c4ccc(Cl)cc4)=NCCN3)C2c2cccnc2)cc1 (centres undefined)
23) COc1ccc2c(c1)c(=O)c(C(=O)c1ccccc1)cn2Cc1ccc(C)cc1
19) N#C/C(=C\c1cn(Cc2ccccc2)c2ccccc12)C(=O)NCc1ccco1
9) O=C(O)Cn1nnc(COc2ccccc2)n1

assay / entry	2	23	19	9
D2 PAM	6	-5	-10	-4
CtBP-E1A inh	1	-1	7	3
TRPV1 PAM	20	6	-7	-10
PINK1 modulator	3.5%	0.9%	?	0.2%
Six1-Eya2 inh	2	0	14	11
Sfp inh	2%	10%	14%	13%
D2 agonist	0.2	-0.6	-4.5	-5.2

(more compounds)
31) Cc1ccccc1NC(=O)Nc1ccc2c(c1)OCO2
32) CCCn1c(=O)c(C(=O)Nc2ccccc2C)c(O)c2ccccc21
33) CC(OC(=O)c1cc[n+]([O-])cc1)C(=O)Nc1ccc(C(N)=O)cc1 (centres undefined)
34) CC(C)N(C(=O)C(F)(F)F)C(C(=O)NC1CCCCC1)c1ccncc1 (centres undefined)
35) c1nc(N2CCN(Cc3ccc4c(c3)OCO4)CC2)c2[nH]cnc2n1
36) CCNC(=O)C1CCCN(C(=O)c2ccco2)CC1 (centres undefined)

assay / entry	31	32	33	34	35	36
D2 PAM	-13	-6	-13	-7	81*	0
CtBP-E1A inh	10	5	1	11	4	3
TRPV1 PAM	-10	?	4	8	9	.
PINK1 modulator	15%	9.9%	-2.0%	3.7%	2.0%	-0.6%
Six1-Eya2 inh	5	-10	4	3	6	1
Sfp inh	-3%	35µM*	.	5%	1%	.
D2 agonist	-3.3	-1.3	2.5	0.5	9.2	-3.6

37) CCCCN(C(=O)c1ccc(S(=O)(=O)N2CCCC2)cc1)C1CCS(=O)(=O)C1 (centres undefined)
38) O=C(CN1C(=O)c2ccccc2C1=O)Nc1ccc(N2CCOCC2)cc1
39) CCOCCCNC(=O)C1CCN(C(=O)Nc2ccc(C)cc2)CC1
40) O=C(Nc1cccc(Cl)c1N1CCCC1)c1ccc([N+](=O)[O-])o1
41) CCN(CC)S(=O)(=O)c1ccc(N2CCCC2)c(NC(=O)C2=COCCO2)c1
42) CCOC(=O)N1N=C(c2ccccc2)CC1(O)C(F)(F)F (centres undefined)

assay / entry	37	38	39	40	41	42
D2 PAM	-8	-8	4	10	-27	-7
CtBP-E1A inh	-6	-4	2	-12	-1	0
TRPV1 PAM	4	-16	-6	-1	-7	-5
PINK1 modulator	-0.1%	-1.0%	-1.1%[38.3 µM]	1.5%	0.6%	2.6%
Six1-Eya2 inh	6	8	0	-19	7	20
Sfp inh	.	5%	4%	0%	.	2%
D2 agonist	-0.3	-0.7	1.2	3.7	-7.1	-5.0

43) CCOC(=O)CSc1nnc(COc2cccc(C)c2)o1
44) CC(C)C(=NO)c1ccccc1
45) CCCN1C(=O)/C(=C/c2cc(C)n(C)c2C)SC1=Nc1ccc(OC)cc1
46) CN1CCN(C(=O)c2ccc3ccccc3c2)CC1
47) CCn1cc(/C=C(\NC(=O)c2ccc(OC)cc2)C(=O)N2CCOCC2)c2ccccc21
48) CC1=C(C(=O)N2CCN(c3cc(C)ccc3C)CC2)C2(CCCCC2)OC1=O
49) COc1ccc(N(CC(=O)Nc2ccccc2C(N)=O)S(=O)(=O)c2ccc(C)c([N+](=O)[O-])c2)cc1
50) CCNc1cc(N2CCOCC2)nc(SC)n1
51) CCOc1cc(Cl)c(S(=O)(=O)NCc2ccccn2)cc1Cl

assay / entry	43	44	45	46	47	48	49	50	51
D2 PAM	13	-14	-22	-25	-14	-4	-4	-6	12
CtBP-E1A inh	-11	10	?	3	0	8	.	4	8
TRPV1 PAM	1	.	-5	0	15	-6	5	14	-9
PINK1 modulator	-0.1%	-1.0%	6.5%	23%[38.3 µM]	-0.9%	1.9%	-0.7%	0.1%	.
Six1-Eya2 inh	-4	0	?	3	3	9	-8	-8	3
Sfp inh	17%	.	-13%	9%	-7%	15%	20%	-9%	5%
D2 agonist	-0.8	-0.2	-6.8	-3.6	2.6	-5.7	5.0	-3.0	1.9
